miR-21 FLuc: miR-21 reporter, rising signal; HeLa miR-21 FLuc reporter, luciferase, 48 h; 340,000 tested, under 10 active; Potency, µM (highest dose often 38.3 µM), for inactives: top-dose reporter change, positive = more light; AID 2288; active = well fitted rising curve with a large enough effect; inconclusive = small, poorly fitted or top-dose-only effect; inactive = no such curve, though single readings can be large or run the other way;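 note: % of control where 0% means no effect; miR-21 action dims this reporter so a rising signal means less miR-21 action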
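HeLa cells endogenously expressing miR-21, stably carrying CMV-driven firefly luciferase with a downstream miR-21 binding site, 2000 cells/well. Titrations up to approximately 40 uM, 48 hours; luciferase luminescence read.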
Rango-impB inh: inhibitors of Rango-importin beta complex formation; Q14974; Rango CFP/YFP FRET sensor + importin beta, 45 min; Potency, µM (titrated, usually from 92.2 µM), without a hit: at the highest dose inhibition of complex formation; hit rate 0.031% among 340,000; AID 540263; active = rising FRET ratio curve, often small or poorly fitted; inconclusive = mostly compound fluorescence or quenching in the first reads; inactive = flat curves in all reads;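 note: potency is the fitted concentration of half-maximal effect; 0% = DMSO wells and 100% = buffer wells lacking importin beta; nearly all actives have a fitted effect of over 15% in size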
Target sequence (Q14974 whole entry, looked up): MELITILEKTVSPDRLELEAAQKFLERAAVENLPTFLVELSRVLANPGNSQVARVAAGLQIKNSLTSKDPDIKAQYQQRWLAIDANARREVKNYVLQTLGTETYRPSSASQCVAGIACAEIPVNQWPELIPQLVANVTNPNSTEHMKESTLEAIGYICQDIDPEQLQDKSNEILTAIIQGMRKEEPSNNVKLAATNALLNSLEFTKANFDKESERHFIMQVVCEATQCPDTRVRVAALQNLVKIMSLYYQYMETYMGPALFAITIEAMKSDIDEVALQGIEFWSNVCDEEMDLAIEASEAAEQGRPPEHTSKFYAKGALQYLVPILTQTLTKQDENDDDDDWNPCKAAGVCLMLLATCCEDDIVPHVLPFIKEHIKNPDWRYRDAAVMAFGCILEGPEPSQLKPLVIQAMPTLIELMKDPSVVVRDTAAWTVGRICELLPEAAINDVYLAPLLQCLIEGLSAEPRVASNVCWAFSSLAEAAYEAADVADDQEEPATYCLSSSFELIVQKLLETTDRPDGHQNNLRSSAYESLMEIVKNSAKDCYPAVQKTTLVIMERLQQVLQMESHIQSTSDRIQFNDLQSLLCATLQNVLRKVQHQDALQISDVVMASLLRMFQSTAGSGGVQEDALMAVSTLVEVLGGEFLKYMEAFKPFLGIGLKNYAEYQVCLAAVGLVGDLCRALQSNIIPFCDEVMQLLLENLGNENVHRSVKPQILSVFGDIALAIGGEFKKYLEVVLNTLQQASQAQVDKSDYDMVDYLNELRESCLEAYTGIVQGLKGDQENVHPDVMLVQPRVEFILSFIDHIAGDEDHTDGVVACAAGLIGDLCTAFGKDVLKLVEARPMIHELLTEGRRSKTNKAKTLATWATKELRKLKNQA
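Inhibition scored from the CFP 486 nm/YFP 530 nm FRET ratio 45 min after adding 0.125 microM importin beta to 50 nM Rango biosensor preincubated 5 min with compound (room temperature, PBS with DTT, Tween-20, BSA). No-importin wells as positive control.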
GLA inh pH 4.5: alpha-galactosidase A (human) inhibition, pH 4.5. activity change, negative = inhibition, % at 105 µM. 230,000 tested, under 10 active. AID 1467. P06280. purified enzyme, 4-MU-alpha-Gal fluorescence, pH 4.5; inconclusive = small, poorly fitted or top-dose-only inhibition, or a rising curve; inactive = flat fitted curve, though single readings scatter; no compound was filed as active;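 note: 0% = full activity with enzyme and -100% = basal without enzyme; dose as in the result columns while the protocol names 77 µM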
Rango release inh: inhibitors of RanGTP-induced Rango-importin beta complex dissociation | Biochemical FRET Rango-importin beta, RanGTP-induced dissociation | Potency, µM (doses to about 46.1 µM), without a hit: top-dose activity change, negative = inhibition | hit rate 0.071% among 340,000 | O95149+P62826; active means falling FRET ratio curve, often poorly fitted, with flat reads before Ran was added; inconclusive means other falling curves, or compound fluorescence or quenching; inactive means flat or rising ratio curve;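 note: potency is the fitted concentration of half-maximal effect; % of control where 0% means no effect; nearly all actives have a fitted effect of over 45% in size; -100% = wells without RanGTP and RCC1; the record marks most hits as doubtful in a second field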
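FRET read at 45 min, room temperature: inhibitors block the CFP/YFP signal rise when RanGTP (0.6 uM Ran, 2 mM GTP, 0.2 uM RCC1) frees Rango (0.1 uM) from importin beta (0.25 uM). Pre-read after 5 min compound exposure flags interference.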
Starred values were filed as active, the others as inactive; ? = inconclusive; . = no result given. A portion of the library; rates above refer to the full screens.

no.	miR-21 FLuc	Rango-impB inh	GLA inh pH 4.5	molecule	Rango release inh
1	-28%	-0.1%	.	Cc1ccc(C(=O)Nc2ccc(N3CCOCC3)c3nonc23)cc1[N+](=O)[O-]	-4%
2	.	-3.3%	.	CCCCn1c(N)c(N(CCOC)C(=O)COC(=O)COc2cccc(C(C)=O)c2)c(=O)[nH]c1=O	21%
3	0%	?	2	O=C(C1CCN(c2ccc(N3CCOCC3)nn2)CC1)N1CCN(c2ccc(F)cc2)CC1	-8%
4	-1%	-3.2%	.	O=C(Nc1cccc(-c2nn[nH]n2)c1)c1ccc(Cl)s1	-15%
5	-4%	-0.6%	-8	COCCNC(=O)CN(C(=O)Cn1nnc2ccccc21)c1ccc(C)c(F)c1	-3%
6	-57%	3.8%	-25	CCCn1nnc(NC(=O)c2sc3ccccc3c2Cl)n1	1%
7	.	-3.7%	.	CCC1(C(=O)OC)NC(c2cccc(F)c2)C2C(=O)N(C)C(=O)C21 (stereo not given)	?
8	-12%	-2.1%	-3	Cc1cc(C(=O)NCc2cc(F)cc3c2OCOC3)nn1C	1%
9	-31%	0.2%	-29	O=C(NCc1ccco1)c1ccc2c(=O)n(-c3ccccc3)c(=S)[nH]c2c1	2%
10	-11%	13%	4	CC(C)c1ccccc1OCCCCCNCCO	6%

Next section
no.	miR-21 FLuc	Rango-impB inh	GLA inh pH 4.5	molecule	Rango release inh
11	0%	0.2%	1	O=C(NCCCn1ccnc1)/C(=C/c1cccnc1)NC(=O)c1ccco1	1%
12	-1%	4.5%	-7	Cc1ccc(CC(=O)NCC(C)C)cc1	5%
13	-12%	0.3%	2	CCc1ccccc1OCc1nnc(N)s1	2%
14	-3%	-0.7%	3	COc1ccccc1-n1c(SCC(=O)N(C)C2CCS(=O)(=O)C2)nc2ccccc2c1=O (stereo not given)	-19%
15	2%	-0.3%	.	CN(C)S(=O)(=O)Nc1cccc(NC(=O)CC23CC4CC(CC(C4)C2)C3)c1	0%
16	-21%	-3.2%	?	Cc1cc(C(=O)OCC(=O)Nc2c(F)cccc2F)c(C)n1-c1ccccc1	3%
17	-13%	-1.2%	.	COc1ccccc1/C=C\C(=O)NCC(=O)N/N=C(/C)c1cccc([N+](=O)[O-])c1	-6%
18	.	-3.6%	.	CCCCN(C(=O)c1cccc(S(=O)(=O)N2CCN(C)CC2)c1)c1c(N)n(CC(C)C)c(=O)[nH]c1=O	-3%
19	2%	2.7%	5	Cc1cccc(NC(=O)CCCCCN2C(=O)c3ccccc3C2=O)n1	8%
20	1%	-2.8%	.	CC/C(=N\NC(=O)c1nnn(-c2nonc2N)c1-c1cccs1)c1ccccc1	-14%

Next results:
no.	miR-21 FLuc	Rango-impB inh	GLA inh pH 4.5	molecule	Rango release inh
21	3%	0.4%	-2	COc1cccc(-c2nnn(CC(=O)Nc3cc(OC)c(NC(=O)c4ccco4)cc3OC)n2)c1	14%
22	1%	-0.1%	1	COc1cccc(/C(C)=N/NC(=O)Cc2c(C)[nH][nH]c2=O)c1	0%
23	9%	5.0%	6	COc1ccc(C(=O)N/N=C/c2ccccc2C(=O)O)cc1OC	1%
24	-13%	-3.6%	2	Cc1ccc(NC2SC(=O)N(Cc3cccc(C(=O)O)c3)C2=O)c(C)c1 (stereo not given)	16%
25	-3%	-0.3%	.	O=C(Nc1c2c(nn1-c1ccc([N+](=O)[O-])cc1)CS(=O)(=O)C2)c1ccccc1F	-4%
26	-13%	-2.8%	-6	Cc1ccc(S(=O)(=O)N2CCN=C2SCc2ccccc2)cc1	-17%
27	0%	-5.1%	-4	CCOc1cc(/C=N/NC(=O)CCCC(=O)NC2CCCCC2)ccc1O	4%
28	2%	0.3%	-1	CN(C)S(=O)(=O)N1CCN(S(=O)(=O)c2ccccc2)CC1	6%
29	-3%	-2.7%	.	Cc1[nH]c2ccc(C(=O)NCCN3CCCCCC3)cc2c1C	-13%
30	-2%	-3.4%	4	CCCC(O)(CCN1CCOCC1)c1ccc(Cl)cc1 (stereo not given)	-8%

(continued)
no.	miR-21 FLuc	Rango-impB inh	GLA inh pH 4.5	molecule	Rango release inh
31	.	1.4%	.	Nc1ccn([C@@H]2O[C@H](COS(=O)(=O)O)[C@@H](O)[C@H]2O)c(=O)n1	?
32	.	?	.	COc1ccc2c(c1)[C@H]1[C@H](CO2)[C@H](c2ccccc2)[C@]2(C)C(=O)Nc3ccc(Br)cc3C(=O)N12	14%
33	-2%	-4.9%	-4	COc1ccc(C2c3c(-c4ccccc4)n[nH]c3C(=O)N2c2ccc(C(=O)O)cc2)cc1 (stereo not given)	-13%
34	.	0.7%	.	CCOc1ccc(OCCCC(=O)ON=C(N)c2ccccc2Cl)cc1	9%
35	19%	-0.2%	.	COc1cc(CNS(=O)(=O)c2ccc3c(c2)CC(C)N3C(=O)C2CCC2)cc(OC)c1OC (stereo not given)	-3%
36	.	-0.4%	.	C=CCOC(=O)C1=C[C@H](c2csc3ccccc23)C[C@H](OCCCCO)O1	10%
37	-17%	0.8%	3	Cc1cc(NC(=O)c2ccccc2)n(-c2ccccc2)n1	-5%
38	-30%	-6.4%	-5	Nc1nc(NC(=O)c2cccs2)nn1-c1ccccc1	-9%
39	-27%	-1.3%	0	COC(=O)c1ccc(NC(=O)C2C3C=CC(O3)C2C(=O)O)cc1 (stereo not given)	-17%
40	0%	-2.0%	0	Cc1cc(N2C(=O)CCC2=O)n(-c2ccccc2)n1	1%

Going on with the list:
no.	miR-21 FLuc	Rango-impB inh	GLA inh pH 4.5	molecule	Rango release inh
41	16%	-0.5%	.	CC[C@@]12C(=O)N(c3cccc(Br)c3)C(=O)N1[C@H](c1ccc(Cl)cc1)[C@@H]1C(=O)N(C3CCCCC3)C(=O)[C@@H]12	-13%
42	.	-2.4%	.	Nc1nnc(SCC(=O)NCCNC(=O)CSc2nnc(N)s2)s1	-14%
43	-8%	-1.3%	1	Cc1cc(=O)oc(C)c1C(=O)NC1CC(C)(C)NC(C)(C)C1	19%
44	-7%	-1.5%	-19	Cc1ccc(S(=O)(=O)N2CCC(=O)N(CCOC(=O)Nc3ccc(F)cc3)CC2)cc1	-2%
45	0%	-0.2%	-20	O=C(CN1CCOCC1)NNC(=S)Nc1ccc(Cl)cc1	-6%
46	2%	-2.9%	2	Cc1ccc(CN(C(=O)c2c(F)cccc2F)C2CC(C)(C)NC(C)(C)C2)o1	-15%
47	-1%	-0.5%	-4	NNC(=O)CCN1CCN(Cc2ccccc2)CC1	-4%
48	1%	-2.0%	-1	Cc1cc(Cl)c(S(=O)(=O)NCc2cccnc2)cc1OCC(=O)NC1CCCCC1	1%
49	-1%	0.4%	6	CCNC(=O)Nc1ccccc1C(=O)OC	1%
50	4%	-4.1%	.	O=c1c2ccccc2nc(/C=C/c2ccccc2)n1CCCO	-6%

Carrying on.
no.	miR-21 FLuc	Rango-impB inh	GLA inh pH 4.5	molecule	Rango release inh
51	.	0.6%	.	Cc1cc(NC(=O)CSc2nnc(-c3ccco3)n2C)no1	1%
52	-17%	-2.8%	.	Fc1cccc(CNCc2ccc3c(c2)OCO3)c1	1%
53	.	0.3%	.	CS(=O)(=O)c1ccccc1-c1nnc(NC(=O)c2ccc(S(=O)(=O)N3CCCC3)cc2)o1	-14%
54	.	-2.7%	.	C[C@H]1CN([C@@H](C)CO)C(=O)Cc2cc(NC(=O)CCC(F)(F)F)ccc2O[C@H]1CN(C)S(=O)(=O)c1ccc(Cl)cc1	4%
55	.	2.0%	.	CCOC(=O)[C@H]1[C@H]2COc3ccc(Cl)cc3[C@@H]2N2C(=O)CN(Cc3ccccc3)C(=O)[C@@]12C	-7%
56	0%	1.9%	.	Cc1nn(C(=O)c2cc([N+](=O)[O-])ccc2Cl)c(C)c1Br	-4%
57	-1%	4.3%	4	COc1cccc(-n2c(Cc3cc(=O)[nH]c(=O)[nH]3)nnc2SCC(=O)N2CCC(C)CC2)c1	-8%
58	-1%	3.9%	2	CC#CC(=O)N1CCC(CCc2ccccc2)(C(=O)OCC)CC1	17%
59	0%	?	6	Cc1c(C(=O)Nc2nccs2)sc2nc(-c3cccs3)cc(C(F)(F)F)c12	?
60	5%	1.5%	-13	Cc1cc([N+](=O)[O-])nn1CCCC(=O)Nc1cccnc1Cl	3%

An excerpt from above in order of number of heavy atoms, ascending:
no.	miR-21 FLuc	Rango-impB inh	GLA inh pH 4.5	molecule	Rango release inh
49	-1%	0.4%	6	CCNC(=O)Nc1ccccc1C(=O)OC	1%
47	-1%	-0.5%	-4	NNC(=O)CCN1CCN(Cc2ccccc2)CC1	-4%
56	0%	1.9%	.	Cc1nn(C(=O)c2cc([N+](=O)[O-])ccc2Cl)c(C)c1Br	-4%
45	0%	-0.2%	-20	O=C(CN1CCOCC1)NNC(=S)Nc1ccc(Cl)cc1	-6%
60	5%	1.5%	-13	Cc1cc([N+](=O)[O-])nn1CCCC(=O)Nc1cccnc1Cl	3%
50	4%	-4.1%	.	O=c1c2ccccc2nc(/C=C/c2ccccc2)n1CCCO	-6%
58	-1%	3.9%	2	CC#CC(=O)N1CCC(CCc2ccccc2)(C(=O)OCC)CC1	17%
59	0%	?	6	Cc1c(C(=O)Nc2nccs2)sc2nc(-c3cccs3)cc(C(F)(F)F)c12	?
46	2%	-2.9%	2	Cc1ccc(CN(C(=O)c2c(F)cccc2F)C2CC(C)(C)NC(C)(C)C2)o1	-15%
48	1%	-2.0%	-1	Cc1cc(Cl)c(S(=O)(=O)NCc2cccnc2)cc1OCC(=O)NC1CCCCC1	1%
44	-7%	-1.5%	-19	Cc1ccc(S(=O)(=O)N2CCC(=O)N(CCOC(=O)Nc3ccc(F)cc3)CC2)cc1	-2%
53	.	0.3%	.	CS(=O)(=O)c1ccccc1-c1nnc(NC(=O)c2ccc(S(=O)(=O)N3CCCC3)cc2)o1	-14%
55	.	2.0%	.	CCOC(=O)[C@H]1[C@H]2COc3ccc(Cl)cc3[C@@H]2N2C(=O)CN(Cc3ccccc3)C(=O)[C@@]12C	-7%
54	.	-2.7%	.	C[C@H]1CN([C@@H](C)CO)C(=O)Cc2cc(NC(=O)CCC(F)(F)F)ccc2O[C@H]1CN(C)S(=O)(=O)c1ccc(Cl)cc1	4%

Next entries:
no.	miR-21 FLuc	Rango-impB inh	GLA inh pH 4.5	molecule	Rango release inh
61	-6%	-4.8%	7	Cc1nn(-c2ccccc2)c(C)c1P(=O)(c1ccccc1)N(C)C (stereo not given)	-1%
62	-5%	?	.	CCc1ccc(-n2c(=S)sc3c(=O)n(-c4ccccc4C)c(SCC(=O)O)nc32)cc1	?
63	-1%	6.1%	9	CC(=O)C1=C(O)CCCC1=NCc1nc2ccccc2[nH]1	2%
64	-3%	5.4%	.	COc1ccc(/C(C)=N/NC(=O)CNC(=O)c2cccnc2)cc1OC	-10%
65	.	2.9%	.	C[C@@H](NCCCn1ccc(NC(=O)OCc2ccccc2)nc1=O)c1cccc2ccccc12	-9%
66	12%	0.3%	-10	O=C(CC(c1ccc(F)cc1)c1ccco1)Nc1nccs1 (stereo not given)	8%
67	1%	?	19	CC(C)(NC(=O)c1cc(Cl)c2ccccc2c1O)C(=O)O	-10%
68	-15%	1.9%	7	O=C(Cc1cccs1)Nc1ccc(-c2nnn(CC(=O)N3CCOCC3)n2)cc1	-8%
69	-1%	0.0%	3	CCOC(=O)C1CCN(C(=O)Cc2ccc(OC)c(OC)c2)CC1	0%
70	3%	0.0%	8	CCOC(=O)COc1c(C=O)cc(Br)cc1OC	-16%
71	-1%	0.4%	-6	CCc1cc(-c2n[nH]c(=S)n2N)n(C)n1	8%
72	-3%	-0.1%	2	CSc1ccc(C(=S)N2CCN(C)CC2)cc1	-1%

From compound 61 to 62, copied from above:
no.	miR-21 FLuc	Rango-impB inh	GLA inh pH 4.5	molecule	Rango release inh
61	-6%	-4.8%	7	Cc1nn(-c2ccccc2)c(C)c1P(=O)(c1ccccc1)N(C)C (stereo not given)	-1%
62	-5%	?	.	CCc1ccc(-n2c(=S)sc3c(=O)n(-c4ccccc4C)c(SCC(=O)O)nc32)cc1	?

Screening results as filed in PubChem BioAssay.
